KCNQ2 enhance = KCNQ2 (rat) channel potentiation. O88943. CHO-K1 KCNQ2, FluxOR thallium flux fluorescence; hits give high values. B-score at 10 µM. 310,000 tested, 0.54% active. AID 2239;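 active means fluorescence ratio B-score at least 3 SD of library B-scores, with initial fluorescence B-score within 3 SD, cut at about 5.3 in these data; same plate scores as AID 2156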;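 further: B-score of peak minus minimum over baseline fluorescence ratio after K+ and Tl+ stimulus; positive B-score means potentiation of KCNQ2 with more thallium influx and brighter signal; only the inactives scoring about 0 or higher are listed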
Target sequence (O88943 whole entry, looked up): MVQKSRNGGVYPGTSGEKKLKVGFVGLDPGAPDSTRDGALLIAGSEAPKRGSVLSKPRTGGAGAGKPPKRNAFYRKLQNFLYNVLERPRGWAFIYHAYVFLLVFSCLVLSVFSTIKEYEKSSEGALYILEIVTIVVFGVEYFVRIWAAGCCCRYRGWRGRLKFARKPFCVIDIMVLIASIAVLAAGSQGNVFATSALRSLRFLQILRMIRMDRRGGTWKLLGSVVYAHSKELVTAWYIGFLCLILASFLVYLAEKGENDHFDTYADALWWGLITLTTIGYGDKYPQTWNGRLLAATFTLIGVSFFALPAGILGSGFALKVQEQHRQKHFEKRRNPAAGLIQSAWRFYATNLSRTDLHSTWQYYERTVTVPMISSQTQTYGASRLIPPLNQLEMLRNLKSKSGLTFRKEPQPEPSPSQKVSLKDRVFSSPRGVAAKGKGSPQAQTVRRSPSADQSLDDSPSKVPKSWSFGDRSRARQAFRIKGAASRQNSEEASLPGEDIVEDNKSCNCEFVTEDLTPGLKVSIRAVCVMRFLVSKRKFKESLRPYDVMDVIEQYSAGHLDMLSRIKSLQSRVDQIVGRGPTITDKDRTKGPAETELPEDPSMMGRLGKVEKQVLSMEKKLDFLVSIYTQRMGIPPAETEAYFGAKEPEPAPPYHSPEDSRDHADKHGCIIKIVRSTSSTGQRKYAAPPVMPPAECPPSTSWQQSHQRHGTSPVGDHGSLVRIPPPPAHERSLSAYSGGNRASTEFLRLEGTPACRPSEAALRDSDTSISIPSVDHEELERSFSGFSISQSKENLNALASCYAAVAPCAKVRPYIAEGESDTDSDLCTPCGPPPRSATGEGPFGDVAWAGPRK
KCNQ2 enhance baseline = recorded beside KCNQ2 enhance, whose call it bears; B-score; compound at 10 µM; measured here: initial fluorescence intensity artifact check;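 brightness before thallium and not channel activity; 0 = typical well and far values either way flag optical interference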
* hit, by the source's call; x = not tested or not shown. This is a subset. The share of hits here may be higher or lower than overall.

Start of the data: the first 2 compounds, to show the layout:
No.	SMILES	KCNQ2 enhance	KCNQ2 enhance baseline
1	COc1ccc(C(=O)Nc2cccc(-c3ccc4nncn4n3)c2)cc1	0.6	1.5
2	CC1CCCN(S(=O)(=O)c2ccc(C(=O)Nc3sc4c(c3C(N)=O)CCN(C)C4)cc2)C1 (stereo unspecified)	0.08	-0.89

The listing, from the start:
No.	SMILES	KCNQ2 enhance	KCNQ2 enhance baseline
1	COc1ccc(C(=O)Nc2cccc(-c3ccc4nncn4n3)c2)cc1	0.6	1.5
2	CC1CCCN(S(=O)(=O)c2ccc(C(=O)Nc3sc4c(c3C(N)=O)CCN(C)C4)cc2)C1 (stereo unspecified)	0.08	-0.89
3	CSc1ccccc1C(=O)C1CCCN(C(=O)c2cncs2)C1 (stereo unspecified)	0.07	-2.4
4	CCc1ccc(NC(=O)CO/N=C(\C)c2cc3ccccc3o2)cc1	0.4	0
5	Cc1c(C(=O)NNc2c(Cl)cccc2Cl)n(C)oc1=O	0.15	-0.07
6	COc1cccc(OC)c1C(=O)Nc1ccc(NC(=O)c2ccco2)cc1	1.3	0.31
7	COc1ccc(OC)c(NC(=S)NCc2cccs2)c1	0.06	-0.64
8	CCOc1ccc2nc(NC(=O)C3CCCO3)sc2c1 (stereo unspecified)	0.8	0.13

New compounds follow
No.	SMILES	KCNQ2 enhance	KCNQ2 enhance baseline
9	O=C(NC1CCN(S(=O)(=O)c2ccccc2F)CC1)c1cccnc1	0.03	0.15
10	Cc1ccc(OCCC(=O)Nc2ccc(F)c(Cl)c2)cc1	1.2	-1.3
11	Cc1ccc(NC(=O)c2ccc(COc3ccccc3)o2)nc1	0.44	-0.59
12	c1ccc2c(c1)ncc1cccn12	0.49	0.05
13	COc1cc(C2=Nc3ccc(Br)cc3C(c3ccccc3)N2CC(=O)NN)cc(OC)c1OC (stereo unspecified)	3.8	-0.58
14	Cc1ccc(CNC(=O)C(CC(C)C)OC(=O)c2ccco2)cc1 (stereo unspecified)	3.6	-1.4
15	COc1ccccc1-c1nnc(NC(=O)C2=COCCO2)o1	1	0.05
16	Cc1cccc(C)c1NC(=O)C[N+](C)(C)CC(O)COc1cccc2ccccc12 (stereo unspecified)	0.26	0.57

Later entries.
No.	SMILES	KCNQ2 enhance	KCNQ2 enhance baseline
17	COC1CCN(Cc2c(C(=O)N3CCN(C4CCCCC4)CC3)nc3ccccn23)CC1	0.05	1.8
18	CN(Cc1nc2ccc(F)cc2[nH]1)Cc1nc(CC2CC2)no1	0.71	0.18
19	CCCCSc1cc(C)nc2ncnn12	0.03	1.6
20	CC(C)(CC(=O)OCC(=O)Nc1ccccc1F)CC1=NS(=O)(=O)c2ccccc2N1	1.1	0
21	Cc1c(C)n(CC(O)CN2CCOCC2)c2ccccc12 (stereo unspecified)	1.1	0.67
22	Cc1ccc(C)c(C(=O)CCC(=O)NNC(=O)Cn2nc(C)cc2C)c1	0.86	-0.55
23	OCCN1CCN(C(=S)c2ccc(-c3ccccc3)cc2)CC1	1.2	0.38
24	C=CCON1C(=O)C(=O)N(OCC=C)[C@H]2CCCC[C@H]21	1.1	-0.06

(list continues)
No.	SMILES	KCNQ2 enhance	KCNQ2 enhance baseline
25	C#CC(CC)(CC)NC(=S)Nc1cccc(C(C)=O)c1	0.15	-0.28
26	COc1ccc2occ(C(=O)c3cccs3)c2c1	0.65	0
27	C=CCNC(=O)c1onc(CSc2cccc(OC)c2)c1C(=O)O	1.3	-0.37
28	CCC(C)NCC(=O)Nc1sc2c(c1C(N)=O)CCC2 (stereo unspecified)	1.3	0.56
29	O=C(Nc1cccc(NC(=O)c2ccco2)c1)c1cnccn1	1	1
30	CCOC(=O)c1c(C)[nH]c(C)c1C(=O)COC(=O)c1cc(OC)c(OC)cc1OC	1.5	-0.79
31	CCCCC1C(C#N)=C(C)NC2=C1C(=O)CC(C)(C)C2 (stereo unspecified)	2.3	0.55
32	Fc1ccc(CSc2ccc3nnc(-c4ccccn4)n3n2)cc1	1.2	-0.01

Following part.
No.	SMILES	KCNQ2 enhance	KCNQ2 enhance baseline
33	CC1CCCCN1S(=O)(=O)c1ccc(C(=O)Nc2nnc(-c3ccccc3Cl)o2)cc1 (stereo unspecified)	0.61	0.27
34	CCCn1c(C2CC(=O)N(c3cc(OC)ccc3OC)C2)nc2ccccc21 (stereo unspecified)	0.29	1.4
35	Cc1ccc(NC(=O)c2ccc(=O)n(CC(=O)Nc3ccccc3)n2)cc1	0.6	0.41
36	N#CC(c1ccccc1)c1ccc2c(C(F)(F)F)cc(C(F)(F)F)nc2n1 (stereo unspecified)	2.5	-3.2
37	COC(=O)c1cc(S(=O)(=O)N2CCCCC2)ccc1N1CCOCC1	0.81	-0.7
38	CCOP(=O)(OCC)c1nc(Cc2ccccc2)oc1NCc1ccccc1	0.32	-2
39	CCOC(=O)C(NC(=O)c1ccccc1OCC)(Nc1ncccn1)C(F)(F)F (stereo unspecified)	0.84	0.68
40	NS(=O)(=O)c1ccc(CCNC(=O)C2CCCO2)cc1 (stereo unspecified)	0.23	0.54

New compounds follow
No.	SMILES	KCNQ2 enhance	KCNQ2 enhance baseline
41	COc1ccccc1NC(=O)CSc1nnc(CC(=O)Nc2ccccc2)n1C	0.59	-2
42	CSc1ncc(C(=O)Nc2ccccc2)cn1	0.06	0
43	O/C(=C\Sc1nnc(Cc2ccccc2)o1)c1ccc(F)cc1	1.4	1.4
44	O=C(CN(C(=O)c1csnn1)c1cccc2ccccc12)NC1CCCC1	0.12	0.77
45	Cc1cccc2cc3c(NC(=O)CC(C)C)nn(C)c3nc12	0.9	0.6
46	Cc1ccc(C(=O)NCCC(=O)NCc2ccco2)cc1	0.01	0.42
47	O=C(C1COc2ccccc2O1)N1CCCC1 (stereo unspecified)	0.91	-1.9
48	Cc1ccc(-c2csc(NC(=O)/C=C/c3cccs3)n2)cc1C	1.1	1

Next part.
No.	SMILES	KCNQ2 enhance	KCNQ2 enhance baseline
49	CC(C)NC(=O)C1CCN(C(=O)N(C)C)CC1	1.1	-0.96
50	NCCCC[C@@H]1NC(=O)c2cc([N+](=O)[O-])cc(I)c2SC[C@@H](C(N)=O)NC(=O)[C@H](Cc2ccc(O)cc2)NC1=O	1.1	0.07
51	CC(C)CC(=O)NC(=S)N1CCN(c2ccc([N+](=O)[O-])cc2Cl)CC1	0.84	-0.73
52	Cc1ccc(NC(=O)CN(C)C(=O)CSc2nnc(C(F)(F)F)n2C)cc1	0.61	1.1
53	COc1ccc(/C=N/n2c(-c3ccco3)nc3ccccc3c2=O)cc1	0.29	0.13
54	COc1ccc(-n2nnnc2CNC(=O)c2ccc3ccccc3c2)cc1	0.2	-0.03
55	CCN(CC)S(=O)(=O)c1ccc(C(=O)NCCOC(=O)c2ccc(F)cc2F)cc1	0.42	-0.08
56	O=C(c1ccc([N+](=O)[O-])s1)N1CCN(c2ccccn2)CC1	1.7	0.24

Continued.
No.	SMILES	KCNQ2 enhance	KCNQ2 enhance baseline
57	CCCc1nc2c(o1)CC(CC(C)SCC)CC2=O (stereo unspecified)	0.02	1.1
58	Nc1ccccc1NC1=CC(=O)CC(c2ccccc2)C1 (stereo unspecified)	0.53	-0.3
59	O=C(Nc1ccnn1C1CCN(CC2CC=CCC2)CC1)c1ccccc1 (stereo unspecified)	0.63	0.2
60	Cn1nc(C(F)(F)F)c(-c2ccc(Br)cc2)c1NC(=O)C1CCC1C(=O)O (stereo unspecified)	0.91	-0.04
61	COc1ccc(NC(=O)CC(=O)Nc2ccc(OC)cc2OC)c(OC)c1	0.77	-0.01
62	CSCCC(NC(N)=O)C(=O)NCc1ccc(Cl)cc1 (stereo unspecified)	1.1	-0.48
63	O=C(CN1C(=O)CC(c2ccccc2)=Nc2ccccc21)NCc1ccccc1	-5.6	x
64	CC(=O)c1cccc(NC(=S)N2CCN(S(=O)(=O)c3ccccc3)CC2)c1	1.2	-2.1

(next part)
No.	SMILES	KCNQ2 enhance	KCNQ2 enhance baseline
65	Cc1cccc(NC(=O)c2cnn(-c3ccc(F)cc3)c2C2CCNCC2)c1C	0.23	1.5
66	CCOC(=O)c1sc(NC(=O)COC(=O)CNC(=O)c2ccco2)c(C(=O)OCC)c1C	0.39	1.8
67	COc1ccc(CC(=O)NCc2nnc(SCC(=O)Nc3ccc(OC)cc3)n2C)cc1	0.49	-2.9
68	Cc1cc2cc(C)c3nnc(SCC(=O)NCc4ccc5c(c4)OCO5)n3c2cc1C	0.01	-0.86
69	O=C(COC(=O)/C=C/c1ccccc1[N+](=O)[O-])NCC1CCCO1 (stereo unspecified)	0.98	-1.4
70	COc1ccc(CCNC(=O)C2CCCN(S(=O)(=O)N3CC(C)CC(C)C3)C2)cc1OC (stereo unspecified)	0.96	-0.69
71	Cn1nnc2cc(C(=O)Nc3ccc4ccccc4c3)ccc21	0.21	0.54
72	CN1C(C(=O)NCCc2cccs2)CC2Cn3c(nc4ccccc43)C21 (stereo unspecified)	0.12	0.32

The results go on.
No.	SMILES	KCNQ2 enhance	KCNQ2 enhance baseline
73	CCNC(=O)OCc1cn(-c2ccc(Cl)cc2)nn1	2.9	-0.05
74	COc1cccc(N=Nc2ccc3cccnc3c2O)c1	3.8	1.1
75	COC(=O)[C@@H]1[C@H]2C[C@H]3c4[nH]c5ccccc5c4CCN3C[C@@H]2CC[C@@H]1O	0.35	x
76	C/C(=N\NC(=O)C(=O)N/N=C(\C)c1cccc(O)c1)c1cccc(O)c1	0.32	0.07
77	Cc1cc(C)nc(NCCO)n1	0.67	-0.2
78	COCCn1nnnc1C(c1ccc(OC)cc1)N1CCN(C(=O)c2ccco2)CC1 (stereo unspecified)	2.3	-1.4
79	O=C(CSc1nnc2c(n1)[nH]c1ccc(F)cc12)N1CCOCC1	0.93	0.12
80	CCCCn1c(SCc2cccnc2)nc2c1c(=O)n(C)c(=O)n2C	0.11	-0.39

Retrieved by structure from the entries so far, 6 records:
No.	SMILES	KCNQ2 enhance	KCNQ2 enhance baseline
29	O=C(Nc1cccc(NC(=O)c2ccco2)c1)c1cnccn1	1	1
70	COc1ccc(CCNC(=O)C2CCCN(S(=O)(=O)N3CC(C)CC(C)C3)C2)cc1OC (stereo unspecified)	0.96	-0.69
53	COc1ccc(/C=N/n2c(-c3ccco3)nc3ccccc3c2=O)cc1	0.29	0.13
32	Fc1ccc(CSc2ccc3nnc(-c4ccccn4)n3n2)cc1	1.2	-0.01
19	CCCCSc1cc(C)nc2ncnn12	0.03	1.6
15	COc1ccccc1-c1nnc(NC(=O)C2=COCCO2)o1	1	0.05

Remaining list, next part.
No.	SMILES	KCNQ2 enhance	KCNQ2 enhance baseline
81	CCCCOC(=O)C(C)Nc1n[nH]c(=O)[nH]c1=O (stereo unspecified)	0.67	-2
82	Cc1ccc(S(=O)(=O)NCC(=O)N/N=C/c2ccc(Cl)cc2Cl)cc1	0.14	0.56
83	Cc1csc(NC(=O)CSc2nnc(-c3ccc(S(=O)(=O)N4CCCC4)cc3)o2)n1	2	0.01
84	COC(=O)c1ccc(CN2C(=O)NC3(CCCCC3)C2=O)cc1	0.91	0.38
85	Nc1ccc2c(c1)C(=O)C(=O)c1ccccc1-2	2.4	-1.9
86	O=C(C[n+]1ccccc1)N/N=C/c1cccc(Cl)c1Cl	1.4	-1.9
87	COC(=O)[C@@H]1C[C@@]2(O)[C@@H](O)[C@@H](O)[C@@H](O)C[C@H]2N1Cc1cc(OC)cc(OC)c1	1.8	0.36
88	N#CC1(C#N)C(C(=O)C23CC4CC(CC(C4)C2)C3)C12CCOCC2 (stereo unspecified)	1.9	-0.77

(more compounds)
No.	SMILES	KCNQ2 enhance	KCNQ2 enhance baseline
89	Cc1cccc(N/N=C2/COC(C)(C)CC2=O)c1	1.1	0.43
90	Cc1ccc(NC(=O)Nc2ccc(F)cc2)cc1Cl	0.09	0.51
91	CCOC(=O)/C(C(N)=NCCO)=C(/O)c1ccccc1	0.01	1.1
92	O=C(NC1CCCC1)c1ccc(CS(=O)Cc2ccccc2Cl)o1 (stereo unspecified)	0.16	1.6
93	Cc1sc2ncn(CCC(=O)O)c(=O)c2c1C	0.36	-0.38
94	CC(=O)Nc1ccc(Nc2nc(Cl)nc(Nc3ccc(NC(C)=O)cc3)n2)cc1	2.4	-0.89
95	FC(F)c1nnc2c(Cl)cc(C(F)(F)F)cn12	0.05	2.2
96	COc1ccc(/C=C/C(=O)NCCCN2CCCC2)cc1	1.2	-0.35

(listing goes on)
No.	SMILES	KCNQ2 enhance	KCNQ2 enhance baseline
97	NC(=O)c1c(NC(=O)CN2CCCC2)sc2c1CCCC2	0.21	-0.02
98	Cc1nnc(SCC(=O)NC(=O)NC(C)(C)C)n1N	0.21	-0.24
99	Cc1cccc(NC(=O)/C(C#N)=C/c2ccccc2O)n1	0.01	0.97
100	C=CCNC(=O)c1ccccc1NC(=O)c1ccc(Cl)c(S(=O)(=O)Nc2cc(C)ccc2C)c1	0.72	0.28
101	CCCC(=O)Nc1ccc(-c2cn3cccnc3n2)cc1	0.7	0.21
102	Cc1ccc(NC(=O)Nc2ccon2)cc1Cl	1.2	0.62
103	COc1ccccc1Nc1nc(N)nc(CN2CC(C)CC(C)C2)n1 (stereo unspecified)	1.4	-1
104	COCC(C)NCc1cccc(OC)c1OC (stereo unspecified)	0.3	2.4

More structures follow.
No.	SMILES	KCNQ2 enhance	KCNQ2 enhance baseline
105	Cc1ccc(C(=O)Nc2ccc(C)c(S(=O)(=O)N(C)C)c2)s1	1.2	-1.2
106	CCOC(=O)c1c(C)n2c3c(cc(C)cc13)CCC2	0.1	0.19
107	CC(=O)NN1C(=O)c2ccccc2NC1c1ccccc1 (stereo unspecified)	1.3	0.47
108	O=C(NCc1ccccc1)C1CCCC1	0.09	-0.28
109	COC(=O)c1ccc(COC(=O)CNC(=O)c2ccco2)cc1	0.78	-0.21
110	CCCCc1nc2cc(C(=O)NC3CCOC(C)(C)C3)ccc2o1 (stereo unspecified)	0.98	-0.23
111	CCOc1ccc(NC(=O)CSc2nc3nc4c(cc3c(=O)n2CC)COC(C)(C)C4)cc1	1.4	0.28

Compound activity as filed in PubChem BioAssay.
